Screening results from PubChem BioAssay.
RecA splice inh: Mtb RecA intein splicing inhibitors, primary screen, biochemical, fluorescence, HTS | Protein RecA (Mycobacterium tuberculosis (strain ATCC 25618 / H37Rv)), P9WHJ3 | cell-free RecA intein splicing | inhibition, %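 (about 9 µM by stock and volumes)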 | 0.75% of 290,000 active | AID 2221, 2009; in the data active = inhibition above about 30%; inconclusive = no clear call, values can overlap the other calls;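 also: 0% = vehicle wells and 100% = reference inhibitor control wells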
Target sequence (P9WHJ3 whole entry, looked up, canonical isoform): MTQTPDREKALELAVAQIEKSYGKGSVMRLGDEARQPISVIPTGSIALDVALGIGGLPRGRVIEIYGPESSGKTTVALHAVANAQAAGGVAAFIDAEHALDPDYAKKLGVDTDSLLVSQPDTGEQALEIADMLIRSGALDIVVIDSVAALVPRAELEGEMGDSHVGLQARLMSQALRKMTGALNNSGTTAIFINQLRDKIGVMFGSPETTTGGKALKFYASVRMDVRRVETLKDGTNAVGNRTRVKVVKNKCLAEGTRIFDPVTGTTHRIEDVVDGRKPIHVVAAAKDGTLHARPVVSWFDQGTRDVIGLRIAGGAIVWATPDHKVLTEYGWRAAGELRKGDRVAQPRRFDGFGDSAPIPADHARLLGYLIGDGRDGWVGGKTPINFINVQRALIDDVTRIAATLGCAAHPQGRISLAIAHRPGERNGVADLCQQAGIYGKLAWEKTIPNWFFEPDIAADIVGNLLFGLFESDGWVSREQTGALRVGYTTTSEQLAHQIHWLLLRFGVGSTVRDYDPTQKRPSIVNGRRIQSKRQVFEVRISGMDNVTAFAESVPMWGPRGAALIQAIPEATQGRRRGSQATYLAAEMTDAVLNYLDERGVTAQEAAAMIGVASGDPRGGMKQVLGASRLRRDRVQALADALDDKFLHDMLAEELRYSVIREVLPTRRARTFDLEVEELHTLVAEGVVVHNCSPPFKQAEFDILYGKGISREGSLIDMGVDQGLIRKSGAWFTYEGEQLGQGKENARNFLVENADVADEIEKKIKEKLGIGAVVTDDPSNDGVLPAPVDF
Mtb growth: M. tuberculosis H37Rv growth inhibitors, H37Rv strain (AID 1626) | 0.95% of 220,000 active | M. tuberculosis H37Rv growth inhibition; higher % means a stronger effect | inhibition, % at 10 µM; hits with a dose series show IC50 in µM;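 active = confirmed in a dose series; inconclusive = inhibition above 80% but not taken into the dose series; inactive = below 80% or under 30% at every dose of the series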;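 also: bacteria incubated seven days before Alamar blue readout; 0% = bacteria only wells and 100% = bacteria with antibiotic wells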
Mtb bLac sens: beta-lactam sensitization of Mtb H37Rv, H37Rv; 0.27% of 330,000 active; inhibition, % at 25 µM; M. tuberculosis H37Rv growth with meropenem, percent inhibition; hits of this screen are not shown here; AID 434955, 2010;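 active = about 74% or more and at least 40 points above the plate without the antibiotic, then above 30% in a dose series; inconclusive = first-round hits that could not be retested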;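 also: growth measured after seven days incubation then overnight dye step; 0% = bacteria only wells and 100% = bacteria with antibiotic; twin plates without the antibiotic show which effects depend on it; some results filed as inactive read as strong as hits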
YopH PTP inh: YopH tyrosine phosphatase inhibitors, primary screen, biochemical, fluorescence Ex485/Em525; YopH tyrosine phosphatase [Yersinia enterocolitica]; inhibition, %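 (about 10 µM by stock and volumes)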; 0.16% of 140,000 active;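 active = inhibition of 50% or more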;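 also: controls were vehicle for no effect and minimum signal wells for full effect; inactives centre near -20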
Arbovirus anti: antivirals against arbovirus infection, primary screen, cell-based, full library, 10K replicate subset; arbovirus infection cell-based antiviral screen; inhibition, % at 10 µM; 0.37% of 200,000 active; AID 1251, 2008;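 active = inhibition from about 30%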;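 also: bluetongue infection of BSR cells; cell survival read as ATP light after 72 h; 0% = infected wells without compound and 100% = uninfected wells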
Arbovirus anti repeat: further read-out of Arbovirus anti, marked with its call; inhibition, %; measured here: 10K subset replicate screen; many hits read low in the repeat;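 first of two repeat runs on a subset; 0% = infected and 100% = uninfected wells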
Active calls of the source: *; ? = inconclusive; nt = no result given; & = joins results of further samples.

SMILES	RecA splice inh	Mtb growth	Mtb bLac sens	YopH PTP inh	Arbovirus anti	others
Cc1ccc2nc(N/N=C\c3ccc([N+](=O)[O-])o3)nc(-c3ccccc3)c2c1	42*	nt	100	10	-29
COc1ccc(-n2nc([N+](=O)[O-])c(=NC3CCN(Cc4ccccc4)CC3)n2O)cc1	-1.4	3%	-18	nt	-23
CN(C)/C=C(\C=N\OCc1ccc(Cl)cc1Cl)C(=O)Nc1ccc(Cl)c(Cl)c1	7.3	?	53	-47	-38
CC(=O)N1N=C(N)SC12CCCC2	6.6	-14%	-5	nt	-3
O=C(Cn1cccc1C(=O)c1ccccc1)NCCN1CCCCCC1	0.1	-5%	-10	-35	5
COc1cccc2sc(N(CCN(C)C)C(=O)c3ccc4c(c3)CCCC4)nc12	5.7	nt	0	nt	nt
O=C1NC(c2ccncc2)Nc2ccccc21 (configuration not stated)	4.1	-6%	-13	-30	6
COc1ccc(-c2cc(=O)oc3c(O)c(O)ccc23)cc1	23	nt	5	nt	nt
COc1ccc(/C(C)=N/NC(=S)Nc2cc(C)ccc2C)cc1	9.6	?	97	nt	1
CC(Cc1cccs1)NC(=S)Nc1ccccc1 (configuration not stated)	0.3	32%	-2	-7	14

Ordered by heavy-atom count (rising): three of the compounds above.
SMILES	RecA splice inh	Mtb growth	Mtb bLac sens	YopH PTP inh	Arbovirus anti	others
O=C1NC(c2ccncc2)Nc2ccccc21 (configuration not stated)	4.1	-6%	-13	-30	6
CC(Cc1cccs1)NC(=S)Nc1ccccc1 (configuration not stated)	0.3	32%	-2	-7	14
O=C(Cn1cccc1C(=O)c1ccccc1)NCCN1CCCCCC1	0.1	-5%	-10	-35	5

(next part)
SMILES	RecA splice inh	Mtb growth	Mtb bLac sens	YopH PTP inh	Arbovirus anti	others
C=CCOC(=O)C1=C(C)NC(SCC)=C(C#N)C1c1ccc(Cl)cc1 (configuration not stated)	8.6	8%	-8	12	-29
COCCN(CC(=O)NCc1ccc(F)cc1)C(=O)CCC(=O)Nc1ccccn1	0.0	2%	0	-42	8
CCCCCC(=O)Nc1ccc(C2C(=O)c3ccccc3C2=O)cc1	2.3	nt	2	nt	nt
Cc1nccn1C(c1ccccc1)c1ccccc1	0.0	nt	-17	nt	nt
Nc1nc2ccc(Cl)cc2c2nc(-c3ccco3)nn12	0.7	-8%&7%	-6	nt	-7
O=C(c1ccc(CN2CCc3ccccc3C2)cc1)N1CCN(c2ccc(F)cc2)CC1	0.0	-4%	0	-36	nt
Cc1ccc(C)c(NC(=O)c2cccc(Oc3ccc([N+](=O)[O-])cc3Cl)c2)c1	4.6	2%	2	-11	23
CCCN(CCC)C(=O)C[n+]1cccc(/C=N/O)c1	-0.1	-4%	2	-30	-2
O=C(NC1CC2CCCC(C1)N2Cc1cccs1)c1ccc([N+](=O)[O-])cc1 (configuration not stated)	1.7	-4%	2	nt	3
O=S(=O)(c1ccccc1)c1cnc(-c2ccccc2)nc1N1CCCC1	16	5%	-7	nt	10
Cc1c(C#N)c(NC(=O)CCl)n(Cc2ccccc2)c1C	44*	-1%	64	nt	5
CCn1c(SCC(=O)OC2CCCCC2)nnc1-c1ccncc1	1.8	-8%	-4	-14	8
CSc1nnc(SCC(=O)NC(=O)c2ccccc2)s1	-2.2	nt	-5	nt	nt
CCc1c(C)sc(NC(=S)N2CCN(C(=O)C3CCCO3)CC2)c1C(=O)OC (configuration not stated)	0.0	nt	4	nt	nt
COc1cc(O)c(C(CC(=O)N2CCCC(C)C2)c2ccc(N(C)C)cc2)c(OC)c1 (configuration not stated)	-0.9	-6%	4	nt	nt
Cc1cc(C(=O)NC(C)CCC(C)C)c2ccccc2n1 (configuration not stated)	0.7	1%	-3	nt	1
CCC(c1nnnn1CS(=O)(=O)c1ccc(C)cc1)N1CCC(C(N)=O)CC1 (configuration not stated)	5.0	nt	-8	nt	nt
COc1ccc(CNCc2cccc(C)c2)cc1	-3.9	nt	-3	nt	nt
Nc1cc(=O)[nH]c(SCCSc2ccccc2)n1	3.0	nt	3	nt	nt
COc1ccc(-c2cn3c(C)c(C(=O)Nc4cc(NC(C)=O)ccc4OC)sc3n2)cc1	-4.7	-6%	8	2	-10
CCCCC(=O)NCCc1cc2c(C)ccc(C)c2[nH]c1=O	-0.2	0%	2	-3	8	Arbovirus anti repeat=1
Cn1c(Cn2c(=O)sc3ccccc32)nnc1SCC(=O)N1CCCc2ccccc21	nt	1%	-6	-47	-6	Arbovirus anti repeat=0
CN1C2CCC1CC(OC(=O)CCN1CCCC1)C2 (configuration not stated)	-0.7	-8%	-9	-24	4
O=C(NCc1ccc2[nH]c3c(c2c1)CCCC3)c1ccc(S(=O)(=O)N2CCCCC2)cc1	-32	13%	-9	-13	-5
COCCNC(=O)CN1C(=O)CC(C)(C)S(=O)(=O)c2ccccc21	6.3	-3%	-6	-44	4	Arbovirus anti repeat=0
COc1cccc(N2CN(C3CCCCC3)CNC2=S)c1	-2.3	-8%	-8	nt	nt
CC(C)n1cc(CN2CCC(n3nccc3NC(=O)Cc3ccccc3)CC2)cn1	-1.9	nt	?	nt	nt
COc1cccc(C(=O)NN2C(=O)C3C4C=CC(O4)C3C2=O)c1 (configuration not stated)	2.2	4%	-9	-8	1
CSc1ccccc1OCc1cc(C(=O)N(C)C2CCCc3ccccc32)no1 (configuration not stated)	-5.4	nt	2	nt	nt
CCOC(=O)c1cn(Cc2ccccc2)c(C(=O)OC(C)(C)C)c1O	7.2	-11%	22	nt	nt
O=C(O)c1ccc2c(c1)C(=O)N(c1nccs1)C2=O	-4.3	2%	3	nt	nt
CCN1CCSc2ccc(C(=O)Nc3ccc(NC(C)=O)cc3)cc21	-8.6	-5%	18	nt	-4
COc1cccc(C(=O)COC(=O)C(C)N2C(=O)C3C4C=CC(C4)C3C2=O)c1 (configuration not stated)	-1.7	-9%	-5	0	-2
Cc1nnc(SCC(=O)N2CCCCCC2)n(N)c1=O	-6.7	-4%	13	nt	5
CC(C)C[C@H](NC(=O)c1nc[nH]c1C(=O)NCc1ccccc1)C(=O)OCc1ccccc1	5.7	-10%	-5	nt	1
O=C(Nc1ccc(N2CCCC2)c(Cl)c1)c1ccccc1[N+](=O)[O-]	-1.2	0%	7	-13	-4
O=[N+]([O-])c1cnc2ccccc2c1	0.3	-1%	-9	-4	-3
Cc1ccc(C2=NN(C(=O)CCC(=O)O)C(c3cn(-c4ccccc4)nc3-c3ccc(C)cc3)C2)cc1 (configuration not stated)	5.3	0%	0	nt	-13
O=C(CN1CCCCCC1)NCc1ccccc1	0.2	5%	4	nt	-1
Cn1c(C(=O)N[C@@H](C(=O)O)c2ccccc2)cc2cc(F)ccc21	-1.2	nt	-5	nt	nt
Cc1[nH]c2ccccc2c1/C=N/Nc1ccc([N+](=O)[O-])cc1	-5.4	71%	0	-29	-3
Nn1c(SCc2ccccc2)nnc1-c1ccccn1	1.8	-5%	-5	18	-1
COc1ccc(-n2nnnc2SCC(=O)Nc2cccc(NC(C)=O)c2)cc1OC	-0.2	-9%	-2	-8	-13
COc1ccccc1NC(=O)N1CCC(c2nc3ccccc3o2)CC1	-4.2	-1%	84	nt	-3
CCNc1nc(Oc2ccc(C(=O)OCC)cc2)nc(N2CCOCC2)n1	1.0	-3%	3	nt	13
COc1ccc(CN2CCNC(=O)C2CC(=O)NCc2ccc(C)s2)c(OC)c1 (configuration not stated)	2.5	-3%	-4	nt	-1
COc1ccc(/C=C/C(=O)NCC2COc3ccccc3O2)cc1OC (configuration not stated)	1.3	1%	-7	nt	-11
CCCCCc1ccc(CC(=O)Nn2c(C)nc3ccccc3c2=O)cc1	8.1	-2%	14	-19	5
O=C(c1ccc([N+](=O)[O-])cc1)N1CCN(c2ncccn2)CC1	-1.4	nt	-3	nt	nt
CCC(=O)NC(c1cccc([N+](=O)[O-])c1)c1c(O)ccc2ccccc12 (configuration not stated)	0.2	-5%	-3	nt	-4

Other entries:
SMILES	RecA splice inh	Mtb growth	Mtb bLac sens	YopH PTP inh	Arbovirus anti	others
Cc1ccc(C(C)C)c(Oc2cnccn2)c1	0.6	nt	3	nt	nt
CCOc1cccc(CNCc2ccncc2)c1	-2.3	nt	0	nt	nt
CN=C(Nc1ccc(Cl)cc1)c1cccc(C(F)(F)F)c1	-1.7	-8%	-11	-42	-9
CCCCC(=O)OCC(=O)Nc1ccc(OC(F)F)cc1	-0.2	20%	-3	-3	-1
COc1nc(-c2cnccn2)sc1C	-3.0	8%	0	nt	4
Cc1sc2nc(SCC(=O)c3cccs3)n(Cc3ccco3)c(=O)c2c1C	-4.9	4%	0	-39	-16
CCn1cc(C(=O)N2CCN(c3ccc(C(C)=O)cc3)CC2)c2cc(OC)c(OC)cc2c1=O	nt	2%	-1	nt	6
COc1ccc(C(C)(C)C)cc1S(=O)(=O)N1CCN(C)CC1	3.2	-3%	-4	-30	4
CC(O)Cn1cnc2c1c(=O)n(C)c(=O)n2C (configuration not stated)	-1.9	-7%	-1	-48	2
Cn1c(=O)c2c(nc(CN3CCN(c4ccccc4F)CC3)n2CCN2CCOCC2)n(C)c1=O	-4.7	-2%	-6	-10	7
O=C(COC(=O)CCS(=O)(=O)c1ccc(Cl)cc1)Nc1ncc(Cl)cc1Cl	-2.1	-4%	-10	-13	0
CC1=NN(C(=O)c2ccc(C)o2)C(O)(c2ccccc2)C1 (configuration not stated)	nt	4%	7	-27	12
COc1c(C)cc(S(=O)(=O)N2CCCC2)c(C)c1C	-0.6	-2%	nt	-11	-2
Cc1[nH]c2ccccc2c1C(=O)CN1CCCCC1CCO (configuration not stated)	6.1	1%	-17	-22	1
Cn1ccnc1COc1ccc(C=O)cc1	0.0	nt	-5	nt	nt
CCOC(=O)C1CCN(CC(=O)Nc2c(C(=O)OC)[nH]c3cccc(Cl)c23)CC1	0.9	-4%	-5	-48	-5
Cc1c(N=C2SCC(=O)N2c2c(C)n(C)n(-c3ccccc3)c2=O)c(=O)n(-c2ccccc2)n1C	5.7	4%	1	-18	5
CCOC(=O)c1ccc(S(=O)(=O)NCCN(CC)CC)cc1	5.6	6%	-2	nt	-13
O=C(COC(=O)c1ccccc1Cl)NCCC1=CCCCC1	0.9	5%	97	nt	-1
CCOC(=O)c1cc(C(O)(C(F)(F)F)C(F)(F)F)c(/N=C/N(C)C)o1	0.3	-9%	4	-7	-2
CCN(Cc1cc2ccccc2[nH]c1=O)C(=O)C(C)C	1.4	-1%	-8	-61	2
O=C(O)C1CC(=O)N(Cc2ccc(F)cc2)C1 (configuration not stated)	nt	2%	12	-28	6
Cc1cccc(C)c1NC(=O)CSc1nnc(NC(=O)c2ccccc2C(=O)O)s1	-0.7	-6%	1	nt	nt
CCC(C)(C)n1nnnc1CN1CCN(c2nc3ccc(C)cc3cc2C#N)CC1	0.7	-8%	-4	6	1
COc1ccc(CCNC(=O)COc2ccc([N+](=O)[O-])cc2)cc1	0.5	2%	4	nt	-2
CC(=O)N1C=CN(C(C)=O)C(c2cn(C)c3ccccc23)C1c1cn(C)c2ccccc12 (configuration not stated)	nt	-1%	-4	-9	8
COCC1CCCCN1C(=O)c1ccc2oc(CCc3ccccc3)nc2c1 (configuration not stated)	3.5	nt	?	nt	nt
CC(NC(=O)COC(=O)c1cc([N+](=O)[O-])ccc1N1CCOCC1)c1ccc(F)cc1 (configuration not stated)	-0.5	nt	2	nt	nt
Cc1cccc(/C=C/c2onc(C)c2S(=O)(=O)N2CCC(C(=O)NC(C)C)CC2)c1	1.0	nt	?	nt	nt
C[C@@]12CCC=C[C@H]1[C@H](c1ccc(F)c(/C=C/c3ccccc3)c1)N(Cc1ccccc1)C2=O	6.6	5%	1	nt	nt
c1ccc(CN2CCN(Cc3cn4cccnc4n3)CC2)cc1	-0.6	-3%	-1	nt	2
COc1ccc(C(C)NC(=O)c2ccccc2Br)cc1OC (configuration not stated)	0.3	0%	1	nt	-3
COc1ccc2c(C)c(CC(=O)N3CCN(C(=O)C4COc5ccccc5O4)CC3)c(=O)oc2c1 (configuration not stated)	1.1	nt	3	nt	nt
CSc1ccc(Cl)c(C(=O)OCC(=O)N2CCOCC2)c1	-1.1	2%	-1	-50	2
O=C(CN1C(=O)NC2(CCCC2)C1=O)Nc1ccc(Cl)c(C(F)(F)F)c1	-3.5	nt	2	nt	nt
CC(C)C[C@H](NC(=O)c1[nH]cnc1C(=O)N[C@@H](C)C(=O)OC(C)(C)C)C(=O)OC(C)(C)C	-7.3	-3%	3	nt	nt

An excerpt; rates above refer to the full screens.
